Assay outcomes: PubChem, Southern Research Specialized Biocontainment Screening Center
Mtb betalactam: beta-lactam sensitization of Mtb H37Rv, H37Rv. M. tuberculosis H37Rv growth with meropenem, percent inhibition; hits of this screen are not shown here. 0.27% of 330,000 active. inhibition, % at 25 µM;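 active means about 74% or more and at least 40 points above the plate without the antibiotic, then above 30% in a dose series; inconclusive means first-round hits that could not be retested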;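 further: growth measured after seven days incubation then overnight dye step; 0% = bacteria only wells and 100% = bacteria with antibiotic; twin plates without the antibiotic show which effects depend on it; some results filed as inactive read as strong as hits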
Starred values were filed as active, the others as inactive; ? = inconclusive.

The first three compounds (preview)
SMILES | Mtb betalactam
CNC(=O)c1cc(Oc2ccc(NC(=O)Nc3ccc(Cl)c(C(F)(F)F)c3)cc2)ccn1 | 99
CC(C)(C)c1ccc(C(=O)NNC(=O)CNC(=O)c2cccs2)cc1 | -7
COc1ccc(NC(=O)c2ccc(-c3ccc(C(C)=O)cc3)o2)cn1 | 6

Main list, from the first entry:
SMILES | Mtb betalactam
CNC(=O)c1cc(Oc2ccc(NC(=O)Nc3ccc(Cl)c(C(F)(F)F)c3)cc2)ccn1 | 99
CC(C)(C)c1ccc(C(=O)NNC(=O)CNC(=O)c2cccs2)cc1 | -7
COc1ccc(NC(=O)c2ccc(-c3ccc(C(C)=O)cc3)o2)cn1 | 6
CC(C)CN(C(=O)CSc1ncnc2sccc12)C1CCS(=O)(=O)C1 (stereo not drawn) | -1
O=C(OCc1c(F)cccc1Cl)c1cccc(S(=O)(=O)N2CCOCC2)c1 | -5
CC1O[C@@H](OC2C(O)C(O)C(CO)O[C@H]2OC2C[C@]3(C)C(CC(O)C4[C@@H]([C@]5(C)CC[C@@H](C(C)(C)O)O5)CC[C@]43C)[C@@]3(C)CCC(O)C(C)(C)C23)C(O)C(O)C1O (stereo partly drawn) | -2
NC(=O)c1ccc(SCC(=O)OCC(=O)NCc2ccco2)c([N+](=O)[O-])c1 | -2
Cc1cc(O)c(Sc2ncn[nH]2)cc1NS(=O)(=O)c1ccc(Cl)cc1 | 0

(next part)
SMILES | Mtb betalactam
Nc1c(N(Cc2ccco2)C(=O)COc2ccccc2)c(=O)[nH]c(=O)n1Cc1ccccc1 | -1
CCN(CC(=O)Nc1ccc(NC(C)=O)cc1)C(=O)CSC(=S)N1CCCC1 | -16
COc1ccc(C2=Nn3c(nnc3-c3ccccc3OC)SC2)cc1OCC1CC1 | 5
Cn1c(-c2ccc(F)cc2)cc2onc(-c3c(F)cccc3Cl)c2c1=O | 0
Cc1ccc(C(=O)NC(C)C2CC3CCC2C3)cc1 (stereo not drawn) | -3
COc1cc(/C=C/C(=O)OC(C)C(=O)Nc2ccc(Cl)cn2)ccc1OC(F)F (stereo not drawn) | 17
O=C(Nc1ccccc1)c1nc[nH]c1C(=O)NCCCNC(=O)c1[nH]cnc1C(=O)Nc1ccccc1 | 0
Nc1cccc(C#Cc2ccc3c(=O)c4ccccc4oc3c2)c1 | -1

Next results:
SMILES | Mtb betalactam
O=C(c1ccco1)N1CCN(S(=O)(=O)c2ccc(Cl)cc2)CC1 | 3
Cc1ccc2c(CN3CCN(S(=O)(=O)c4ccccc4C(F)(F)F)CC3)cc(=O)oc2c1 | -1
Cc1cccc(C)c1OCC(N)C(C)C (stereo not drawn) | -1
Cc1cc(C(=O)N/N=C/c2ccccn2)c2ccccc2n1 | -13
CC(OC(=O)c1ccc(-n2cnnn2)cc1)C(=O)Nc1ccccc1[N+](=O)[O-] (stereo not drawn) | -2
Cc1ccc(S(=O)(=O)N2CCN(CCOc3c(Cl)cccc3Cl)CC2)cc1C | -3
CCOc1ccccc1NC(=O)COC(=O)c1cc(C)oc1C | 3
O=C(COC(=O)c1n[nH]c2ccccc12)NC1CCCCC1 | 5

Part of the list above, as labelled records:
> O=C(COC(=O)c1n[nH]c2ccccc12)NC1CCCCC1
- Mtb betalactam: 5
> CNC(=O)c1cc(Oc2ccc(NC(=O)Nc3ccc(Cl)c(C(F)(F)F)c3)cc2)ccn1
- Mtb betalactam: 99
> COc1ccc(C2=Nn3c(nnc3-c3ccccc3OC)SC2)cc1OCC1CC1
- Mtb betalactam: 5
> CCN(CC(=O)Nc1ccc(NC(C)=O)cc1)C(=O)CSC(=S)N1CCCC1
- Mtb betalactam: -16

(listing goes on)
SMILES | Mtb betalactam
CCOc1ccc(-c2c(=O)n(OCc3ccc([N+](=O)[O-])cc3)c3ccccc3[n+]2[O-])c(OCC)c1 | -7
CCOC(=O)N1CCN(C(=O)COC(=O)c2ccc(N(C)C)cc2)CC1 | -2
Cc1ccc(N(CC(=O)NCc2ccco2)C(=O)CCC(=O)Nc2ccccn2)c(C)c1 | 1
O=C1CC(C(=O)N2CCN(c3ccccc3)CC2)CN1Cc1ccccc1 (stereo not drawn) | -5
Cc1ccc(S(=O)(=O)N2CCOCC2)cc1C(=O)OCC(=O)NC1CCCC(C)C1C (stereo not drawn) | 4
CC(=O)c1ccc(OCc2cc(C(=O)N(C)CCOc3ccc(C)cc3)no2)cc1 | 83
O=C(Cc1cccc(NC(=O)C2CCN(C(=O)C3CCCC3)CC2)c1)Nc1cccc(C(=O)N2CCCC2)c1 | 9
C[C@H](CO)N1C[C@H](C)[C@@H](CN(C)C)Oc2c(NC(=O)Cc3ccccc3)cccc2C1=O | -1

Next section
SMILES | Mtb betalactam
CCOc1ccc(C(=O)O[C@H]2[C@H](Cc3ccccc3)NS(=O)(=O)[C@H]3C[C@@H]4C=C[C@]23O4)cc1 | 6
Cc1cccc(C)c1NC(=O)COC(=O)CNC(=O)C1CCCCC1 | -3
CCN(c1ccccc1)S(=O)(=O)c1ccc(OC)c(NC(=O)Cc2ccc(F)cc2)c1 | 2
CC(=O)N1CCN(C(=O)COC(=O)/C=C/c2ccccc2[N+](=O)[O-])CC1 | -3
O=C(Nc1ccc(Br)cc1)c1cc(-c2ccncc2)nc2ccccc12 | 95
Cc1cc(C)n2nc(C(=O)OCC(=O)Nc3ccc(C)c(S(=O)(=O)N(C)C)c3)nc2n1 | 5
C[C@@H]1COC(=O)[C@H](Cc2ccc(F)cc2)C/C=C\C[C@@H](CC(=O)NCCO)C(=O)N1 | 5
CC(NC(=O)NC(=O)c1ccc(F)cc1)C1CC1 (stereo not drawn) | -11

The results go on:
SMILES | Mtb betalactam
COc1ccc(CN(C)C(=O)CCCNC(=O)c2ccc(Cl)cc2)cc1 | 4
CCOC(=O)C1=C(C)N=c2s/c(=C/c3ccc(OCC(=O)O)cc3)c(=O)n2C1c1cc(OC)c(OC)c(OC)c1 (stereo not drawn) | 12
C[C@@H](NC(=O)c1nc[nH]c1C(=O)NCCCCCNC(=O)OC(C)(C)C)c1ccccc1 | -9
O=C(/C=C/c1ccc([N+](=O)[O-])cc1)OCC(=O)c1ccc[nH]1 | 52
Cn1nnnc1Sc1ncnc2scc(-c3cccc(C(F)(F)F)c3)c12 | 73
CCOC(=O)C1CCCN(C(=O)CSc2nnnn2C)C1 (stereo not drawn) | -6
Cc1cc(NC(=O)CSCC(=O)N2CCN(c3ccccc3)CC2)no1 | -1
O=C(COc1ccccc1F)NCCc1ccc2c(c1)OCCO2 | -2

(more compounds)
SMILES | Mtb betalactam
O=C(C[C@H]1C/C=C\CC[C@H](Cc2ccc(F)cc2)C(=O)OC[C@H]2CCCN2C1=O)N[C@@H](CO)Cc1ccccc1 | 2
NC(=O)c1ccc(NC(=O)CSc2nnc(C3CC3)n2C2CC2)cc1 | -13
O=C1N[C@H](Cc2ccccc2)COC(=O)[C@H](Cc2ccc(F)cc2)CC/C=C/C[C@H]1CC(=O)N(CCO)Cc1ccccc1 | 1
COc1cccc(/C=C/C(=O)OCC(=O)NC(=O)NC2CCCC2)c1 | 42
C=CC[C@@H](CC(=O)NCCO)C(=O)NC[C@@H](OC(=O)[C@H](CC=C)CC(=O)OC(C)(C)C)c1ccccc1 | 8
CC1CCC2(CC1)NC(=O)N(CC(=O)Nc1ccc(F)cc1)C2=O (stereo not drawn) | -10
CCOc1ccc(C(=O)OCC(=O)NCC2CCCO2)cc1 (stereo not drawn) | -2
Cc1ccc(F)cc1NC(=O)CN1C(=O)NC(C)(c2ccc3c(c2)OCCO3)C1=O (stereo not drawn) | 2

Other records
SMILES | Mtb betalactam
COc1cc(C(=O)NCCC2=CCCCC2)ccc1OC1CCN(C(C)=O)CC1 | -5
CC1CCN(CCCNS(=O)(=O)c2cc(Br)cc3c2N(C(=O)C2CC2)CC3)CC1 | -9
O=C(NCc1ccc(F)cc1)C1CCN(C(=O)Nc2ccc(F)cc2)CC1 | -24
COc1ccc(C)cc1NC(=O)COC(=O)c1ccc2ccccc2n1 | -2
CC(C)CN(C(=O)COC(=O)Cc1c[nH]c2ccccc12)c1c(N)n(Cc2ccccc2)c(=O)[nH]c1=O | -2
COc1cc(C(=O)Nc2ccc(C)c(S(=O)(=O)N(C)C)c2)ccc1OCC(=O)N1CCOCC1 | -2
O=C(CCC(=O)c1cccs1)OCC(=O)c1ccccc1 | 5
N#Cc1ccc(S(=O)(=O)N2CCN(Cc3cccs3)CC2)cc1 | -7

Later entries
SMILES | Mtb betalactam
CC[C@]12c3[nH]c4ccccc4c3CCN1C(=O)C(CC(=O)NCCc1ccccn1)C[C@@H]2C(=O)N1CCN(C(=O)C2CC2)CC1 (stereo partly drawn) | -4
Cc1ccc(C(=O)N/C(=C\c2cccs2)C(=O)N2CCN(C)CC2)cc1C | ?
COc1ccc(OCC(=O)NC(=O)c2ccccc2)c([N+](=O)[O-])c1 | 11
Nc1cc(S(=O)(=O)Nc2ccccc2Cl)ccc1N1CCCCC1 | 27
CC(OC(=O)c1ccc([N+](=O)[O-])s1)C(=O)NC1CCCCC1C (stereo not drawn) | 90
CC1(C)NC(=O)N(CC(=O)N2CCN(c3ccc([N+](=O)[O-])cc3)CC2)C1=O | 1
CN(c1ccc(OCC(=O)OCC(=O)Nc2ccc(OC(F)F)cc2)cc1)S(=O)(=O)c1cccs1 | -5
O=C(O)c1cccc(NC(=O)c2cc(NC(=O)c3ccccc3)cc(NC(=O)c3ccccc3)c2)c1 | -4

(next part)
SMILES | Mtb betalactam
CCCc1nc2nc(C)c(NS(=O)(=O)c3ccc(C(C)(C)C)cc3)c(=O)n2[nH]1 | 1
COc1ccc(/C=C/C(=O)OCC(=O)c2c[nH]c3ccccc23)cc1 | -10
C[C@@H]1O[C@@H](O[C@@H]2C=C3CC[C@@H]4C(CC[C@]5(C)[C@@H](c6ccc(=O)oc6)CC[C@]45O)[C@@]3(C)CC2)[C@H](O)[C@H](O)[C@H]1O (stereo partly drawn) | -16
O=C(Nc1ccc(OC(F)(F)F)cc1)C1CCCN(C(=O)c2ccc(Cl)cc2)C1 (stereo not drawn) | 0
O=C(CNc1ccccc1F)Nc1cccc2ccccc12 | 40
Cc1ccc(N(C(=O)CCCC(=O)Nc2ccccn2)C(C(=O)NC2CCCC2)c2ccc(O)cc2)cc1C (stereo not drawn) | -7
COc1ccc(CCNC(=O)Cc2ccc(NS(=O)(=O)c3ccc(F)cc3)cc2)cc1OC | 4
CCC(=O)c1ccc(OCC(=O)N(CC)CC(=O)Nc2ccccc2OC)cc1 | -7

Next records follow.
SMILES | Mtb betalactam
NC(=O)CCN1CCC(c2nc3ccccc3s2)CC1 | -4
C[C@@H]1CCCCCCCCC(=O)OCCN[C@H](C)CCCCCCCCC(=O)OCCN[C@H](C)CCCCCCCCC(=O)OCCN1 | 95
Cc1noc(C)c1CSCC(=O)OCc1nnc(-c2ccc([N+](=O)[O-])cc2)o1 | 0
CSCCC(NC(=O)c1ccco1)C(=O)NCC(C)(C)N1CCOCC1 (stereo not drawn) | -2
CC(C)(C)NC(=O)CSc1ccc(S(=O)(=O)N2CCOCC2)cn1 | -8
CCCCn1c(N)c(N(CC)C(=O)c2cccs2)c(=O)[nH]c1=O | -1
CCOC(=O)c1c(C)[nH]c(C)c1C(=O)COC(=O)CSc1ccc(C)cc1 | 11
COc1ccc(NC(=S)NCc2ccc(Cl)cc2)c(OC)c1 | 3

New compounds follow:
SMILES | Mtb betalactam
CCOC(=O)[C@H]1[C@H]2COc3ccc(OC)cc3[C@@H]2N2C(=O)CN(Cc3ccc(F)cc3)C(=O)[C@@]12C | 3
COc1ccc(C)cc1NC(=O)CN1C(=O)C2CC=CCC2C1=O (stereo not drawn) | 1
CCC(=O)Nc1ccc(NC(=O)c2cc3ccccc3o2)c(OC)c1 | 5
CCOC(=O)[C@H]1[C@H]2COc3ccccc3[C@@H]2N2C(=O)CN(Cc3ccccc3)C(=O)[C@@]12C | 5
O=C(COC(=O)/C=C/c1ccc(S(=O)(=O)N2CCOCC2)cc1)Nc1ccccc1F | 14
COc1ccc(CNC(=O)CN(C(=O)CCC(=O)Nc2ccccn2)c2cccc(C)c2C)cc1 | 4
CC(NC(=O)COC(=O)c1ccc([N+](=O)[O-])o1)c1ccccc1 (stereo not drawn) | 75
Cc1nc2ccc(NC(=O)C3CCCCC3)cc2s1 | 48

Some of the entries above, reformatted:
O=C(COC(=O)/C=C/c1ccc(S(=O)(=O)N2CCOCC2)cc1)Nc1ccccc1F
  Mtb betalactam = 14

COc1ccc(CNC(=O)CN(C(=O)CCC(=O)Nc2ccccn2)c2cccc(C)c2C)cc1
  Mtb betalactam = 4

(listing goes on)
SMILES | Mtb betalactam
NC1(C#Cc2ccc3oc(=O)c(-n4cc(C5(O)CCCCC5)nn4)cc3c2)CCCCC1 | 5
CC(C)C[C@@H](CO)N(Cc1ccccc1)S(=O)(=O)N(Cc1ccccc1)[C@H](CO)CC(C)C | 25
COc1ccccc1C(=O)Nc1cccc(NC(=O)c2ccccc2OC)n1 | 0
CC[C@@]1(C(=O)OC)N[C@H](CN(C)C(=O)Nc2ccc(C(F)(F)F)cc2)[C@@H]2C(=O)N(C)C(=O)[C@@H]21 | 0
CN(C(=O)c1cccc(NC(=O)Cc2ccc([N+](=O)[O-])cc2)c1)C1CCCC1 | 0
C=C(NC(=O)C(=C)NC(=O)c1csc(C2=NC3c4csc(n4)C4NC(=O)c5csc(n5)C([C@@](C)(O)C(C)O)NC(=O)C5CSC(=N5)/C(=C\C)NC(=O)C(C(C)O)NC(=O)c5csc(n5)[C@]3(CC2)NC(=O)C(C)NC(=O)C(=C)NC(=O)C(C)NC(=O)C(C(C)CC)NC2C=Cc3c(C(C)O)cc(nc3C2O)C(=O)OC4C)n1)C(N)=O (stereo partly drawn) | 100
O=C(NCCCN1CCOCC1)c1cc(S(=O)(=O)N2CCOCC2)c(Cl)cc1Cl | -8
O=C(CNC(=O)c1ccco1)NNC(=O)c1n[nH]c(=O)c2ccccc12 | -9
CCN(CC(=O)NCc1cccs1)C(=O)Cc1ccc(C)c(C)c1 | 3

Not all compounds are listed (hit frequency here may not be typical).
